Bioassay records from PubChem.
Vif A3G – inhibitors of Vif binding to APOBEC3G peptide, primary screen, biochemical, TR-FRET, GST-Vif 1-94, biotin-A3G peptide, dose response retest (AID 1117319) | TR-FRET GST-Vif / biotin-A3G peptide binding; higher % means a stronger effect; test concentration not given here; strong numbers were not always called active | inhibition, %; hits with a dose series show IC50 in µM | hit rate 0.57% among 260,000;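 active = above the screen mean plus three standard deviations and confirmed in dose response; inconclusive = results disagree or hit not tested in dose response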;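 note: Vif residues 1-94 fused to GST binding biotinylated APOBEC3G peptide 110-148; 0% = full assay without inhibitor and 100% = GST in place of GST-Vif; retest series ran down from 100 µM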
ALR H2O2 inh – blocks human ALR sulfhydryl oxidase activity. P55789. purified ALR, DTT oxidation, H2O2 HRP-luminol luminescence. inhibition, % (no concentration beside the values). hit rate 3.8% among 290,000;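 active = mean and each replicate at 75% or more; inconclusive = only one of the two met; inactive = neither met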;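 note: stock transfer was 7.5 nL into about 7.5 µL; 0% = neutral wells and 100% = wells with inactivated enzyme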
LANA-H2A inh – blocks KSHV LANA binding to histone H2A/H2B; Q9QR71; cell-free LANA-H2A/H2B peptide, fluorescence polarization; inhibition, % (no concentration beside the values); hit rate 0.6% among 320,000; AID 2629; in the data active = inhibition mostly above about 10%, no sharp cut-off; inactive = mostly below about 6.7%;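 note: stock transfer was 7.5 nL into about 10 µL; 0% = median of vehicle wells and 100% = median of positive control wells; one replicate is shown; the record names a cut of 25% in any replicate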
Calb FLC – affects C. albicans growth with fluconazole | C. albicans CaCi-2 (fluconazole-resistant clinical isolate) + fluconazole, Alamar Blue growth, 48 h | growth inhibition, % (no concentration beside the values) | hit rate 0.57% among 300,000;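 active = most replicates above 75%; inconclusive = exactly half above 75%; inactive = most below 75%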;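 note: all wells also contain fluconazole at 8 µg/ml as a sub-toxic cotreatment; 0% = median of DMSO wells and 100% = median of geldanamycin control wells; wells of about 8 µL received 7.5 nL stock; the first replicate is given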
HNF4A DNA FP – change in binding of human HNF4 alpha to DNA. hit rate 0.3% among 360,000. HNF4a-FITC DNA binding, fluorescence polarization, 1 h. P41235. activity change, % at 10 µM; in the data active = activity change above about 30%, passing the limit was not always enough;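 note: controls were the assay level and a saturating level of protein; the project sought stronger binding though the title names inhibitors; some compounds called inactive have numbers as strong as hits; positive values seem to mean higher polarization but the record does not say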
Target sequence (P41235 whole entry, looked up): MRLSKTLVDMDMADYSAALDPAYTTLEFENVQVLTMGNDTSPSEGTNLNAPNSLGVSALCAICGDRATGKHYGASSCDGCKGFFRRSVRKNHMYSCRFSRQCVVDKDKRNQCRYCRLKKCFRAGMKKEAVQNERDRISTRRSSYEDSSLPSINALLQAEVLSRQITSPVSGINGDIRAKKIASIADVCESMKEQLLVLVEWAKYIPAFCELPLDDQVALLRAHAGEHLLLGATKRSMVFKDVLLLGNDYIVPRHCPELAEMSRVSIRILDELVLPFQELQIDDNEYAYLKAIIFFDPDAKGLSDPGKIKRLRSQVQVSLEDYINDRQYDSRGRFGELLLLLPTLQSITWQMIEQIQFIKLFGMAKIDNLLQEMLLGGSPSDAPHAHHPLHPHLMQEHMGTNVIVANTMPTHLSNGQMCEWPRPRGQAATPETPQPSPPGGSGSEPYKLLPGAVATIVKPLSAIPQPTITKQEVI
RanGTP-Imp inh – inhibitors of RanGTP-importin-beta interaction, primary screen, biochemical, FRET, CFP-Ran, YFP-importin-beta, homogeneous | cell-free CFP-Ran/YFP-importin-beta FRET ratio | inhibition, % (test concentration not listed) | hit rate 1.1% among 300,000 | AID 2216;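 active = most replicates above 15%; inconclusive = exactly half above 15%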;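 note: 0% = DMSO wells and 100% = Ran loaded with GDP instead of GTP; wells of about 40 µL received 100 nL stock; the first replicate is given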
Beta2AR agonist – activates human beta-2 adrenergic receptor causing internalization | P07550 | Am2.2-beta2AR cells, FAP receptor internalization, flow cytometry; reference of the scale not given here | response, % (no concentration beside the values) | hit rate 0.43% among 340,000;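 active = response above a set limit, near 3 SD of response in nonfluorescent compounds, cut at about 42% in these data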;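 note: stock transfer was 100 nL into about 11 µL; a reference agonist was the positive control; negative values mostly stem from fluorescent compounds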
Target sequence (P07550 whole entry, looked up): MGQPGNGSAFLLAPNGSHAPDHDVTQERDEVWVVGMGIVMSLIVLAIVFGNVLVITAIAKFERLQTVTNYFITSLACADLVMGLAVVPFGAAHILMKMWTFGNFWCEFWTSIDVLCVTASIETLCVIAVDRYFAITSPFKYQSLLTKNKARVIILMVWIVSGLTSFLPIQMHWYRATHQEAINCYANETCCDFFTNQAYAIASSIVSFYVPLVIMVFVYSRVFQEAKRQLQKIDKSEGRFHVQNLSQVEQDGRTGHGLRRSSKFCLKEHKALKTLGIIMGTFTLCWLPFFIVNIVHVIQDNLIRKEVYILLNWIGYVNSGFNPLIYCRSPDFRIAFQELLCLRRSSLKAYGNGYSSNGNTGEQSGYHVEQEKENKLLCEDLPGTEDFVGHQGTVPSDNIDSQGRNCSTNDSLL
The depositor's hits bear a star; ? = inconclusive; . = not tested or not shown; & = joins results of further samples.

structure	Vif A3G	ALR H2O2 inh	LANA-H2A inh	Calb FLC	HNF4A DNA FP	RanGTP-Imp inh	Beta2AR agonist
Cc1c(Cl)cccc1NC(=O)c1cc(-c2ccccc2O)n[nH]1	4%	16	-0.5	-1	1.6	-0.8	22
CCCOc1ccccc1-c1nc(SCCC(=O)O)n[nH]1	1%	1	6.0	-6	-1.0	?	13
COCCNC(=O)C(c1ccc(C)o1)N(C(=O)c1snc(C(N)=O)c1N)c1cccc(C)c1 (stereo not given)	30%&-3%	0	-2.4	-8	1.2	2.8	-4
COc1ccc(C(=O)O)cc1S(=O)(=O)NCCCN1CCCC1=O	4%	-21	2.5	-1	-3.1	2.6	-3
C=CCNC(=O)COc1ccccc1C#N	.	-2	0.8	19	-3.1	2.6	11
CCOCCOC(=O)c1ccc(NC(=O)C2COc3ccccc3O2)cc1 (stereo not given)	.	44	-4.3	-5	-0.2	3.2	8
CC[C@]12c3[nH]c4ccc(OC)cc4c3CCN1C(=O)C(CC(=O)NCCCOC)C[C@@H]2C(=O)N1CCN(C(=O)c2ccco2)CC1 (stereo not given in full)	1%	.	.	.	-2.0	.	-5
CC(=O)c1ccc(OCC(O)CN2CCN(Cc3ccccc3)CC2)cc1 (stereo not given)	2%	-66	4.3	-6	-2.0	?	16
C=C(C)c1cccc(C(C)(C)NC(=O)NCCCn2ccnc2)c1	0%	-10	0.3	-3	-2.0	-4.0	-2
Cc1c(NC(=O)c2cccc(NC(=O)COc3cccc(Br)c3)c2)c(=O)n(-c2ccccc2)n1C	.	15	-0.5	.	3.0	.	-7
Cc1nc2ccc(NC(=O)C(F)(F)F)cc2o1	-4%	-69	1.4	4	0.4	3.2	3
CCOC(=O)N1CCN(C(=O)C(CC)n2nc(C)c3sc4ccccc4c3c2=O)CC1 (stereo not given)	-25%	-2	3.7	22	1.7	2.4	3
CC(c1ccccc1)C(Cc1nc2ccccc2[nH]1)c1nc2ccccc2[nH]1 (stereo not given)	5%	.	-5.5	18	.	5.2	.
CN(C)C=Nc1c(C(=O)c2ccccc2)sc2nccc(N(C)C)c12	.	-3	10	0	2.8	-0.7	2
O=C(O)c1cccc(NC(=O)c2cc(NC(=O)c3ccccc3)cc(NC(=O)c3ccccc3)c2)c1	.	4	1.4	3	3.4	-2.8	0
CC(C)Cn1c(=O)c2sccc2n2c(CCCC(=O)N3CCC(N4CCCCC4)CC3)nnc12	.	-3	-2.6	8	0.3	0.8	-9
Cc1c(C(=O)NCc2ccc3c(c2)OCO3)oc2ccc(S(=O)(=O)N3CCC(C)CC3)cc12	21%	3	2.1	-11	-2.4	0.2	7
Cc1cccc(C(=O)OC(C)CN2C(C)CCCC2C)c1 (stereo not given)	-3%	-64	3.5	-12	5.4	2.9	-3
O=C(CN(c1ccccc1F)S(=O)(=O)c1ccccc1)Nc1ccccc1C(=O)N1CCOCC1	-2%	-1	-5.4	0	-3.0	-4.7	3
Cc1ccc(-c2nnc(N3CCC(C)CC3)c3ccccc23)cc1	28%	-5	-1.3	65	1.7	-2.1	-4
CNC(=O)COC(=O)C1CCN(S(=O)(=O)c2ccc3c(c2)OCCO3)CC1	-1%	.	3.5	.	-1.9	.	7
O=C(CCN1C(=O)C2CC=CCC2C1=O)Nc1nc(-c2ccc(F)c(F)c2)cs1 (stereo not given)	0%	1	-1.1	.	-0.8	.	21
CCOCCn1ccc2c(OCC(=O)Nc3ccccc3OC)cccc2c1=O	-8%	-1	0.1	-6	1.1	3.4	14
Cc1ccc(Oc2ccc(/C=N/O)cn2)cc1	38%	-27	11	-4	-2.4	0.6	-14
COc1cc(C=C(C(C)=O)C(C)=O)ccc1O	1%	98*	4.9	-3	-2.4	-2.0	14
Cc1nn(S(=O)(=O)c2cccc([N+](=O)[O-])c2)c(C)c1S(=O)(=O)N1CCOCC1	.	-4	-0.1	0	-1.3	1.3	-3
O=C1C=CC(=O)N1Nc1ccc(Br)cc1	-7%	3	0.9	-2	2.5	-3.1	21
c1ccc2cc(CSCc3nc4ccccc4[nH]3)ccc2c1	8%	.	1.3	-3	-2.7	-3.3	-12
C=CCOc1ccc(/C=C2\SC(=S)N(NS(=O)(=O)c3ccccc3)C2=O)cc1	.	.	-1.1	57	0.8	-4.0	4
CC(O)[C@H]1CNC(=O)C(=O)N1CCCCC1CCCCC1 (stereo not given in full)	8%	.	-8.1	2	-4.1	2.3	1
N#CC1=C(N)OC2=C(CCc3ccccc32)C1c1ccccc1 (stereo not given)	-7%	-20	-1.1	-2	0.4	18*	43*
COC(=O)N/N=C/c1cccs1	.	-7	-0.1	?	0.0	2.3	-1
COc1ccc(C(=O)N/N=C(/C)c2cccc(NC(=O)c3ccncc3)c2)cc1OC	.	-14	2.5	-7	-1.0	2.0	3
COc1cc(OC)cc(C(C)=O)c1	13%	-9	20*	8	-2.6	-5.5	-2
O=C(c1cccn2c(=O)c3cc(Cl)ccc3nc12)N1CCN(Cc2ccc3c(c2)OCO3)CC1	7%	.	4.3	6	-0.8	?	0
CC1Oc2ccccc2N(Cc2cccnc2)C1=O (stereo not given)	1%	-15	-1.1	-5	-1.3	?	0
COc1cccc(C(=O)OCc2cc(=O)oc3c(C)c(C)ccc23)c1OC	3%	-8	0.5	-9	-3.5	-2.4	3
CN(CC(=O)Nc1cccc(F)c1)C(=O)CCN1C(=O)C2CC=CCC2C1=O (stereo not given)	0%	-1	-3.7	.	-2.5	.	-2
O=C(NCc1ccc(F)cc1)C(=O)NCC1OCCN1S(=O)(=O)c1ccc2c(c1)OCCO2 (stereo not given)	-8%	-2	8.9	-5	4.6	?	-3
CCOC(=O)N1CCN(Cc2nc(C3CC3)no2)CC1	.	-7	2.2	3	-3.1	4.6	9
CCN1CCN(CCCNC(=O)Cn2nc(C)n3nc(-c4ccccc4)cc3c2=O)CC1	.	-11	-1.2	-7	-1.6	-2.3	-1
CCCOc1ccc(C2CC(=O)NC2=O)cc1 (stereo not given)	.	-2	2.3	-10	0.0	0.8	-3
CN1N=C(C(=O)N2CCc3c([nH]c4ccccc34)C2c2c(F)cccc2Cl)CCC1=O (stereo not given)	-2%	10	0.9	4	-6.8	0.9	0
O=C(CN1CCOCC1)Nc1nc(-c2ccccc2Cl)cs1	10%	-9	3.1	-3	1.0	-8.1	-1
NC12CC3CC(C1)CC(CO)(C3)O2	17%	-3	-2.6	-4	-3.2	-3.6	-2

Reformatted: entries from further up
O=C(NCc1ccc(F)cc1)C(=O)NCC1OCCN1S(=O)(=O)c1ccc2c(c1)OCCO2 (stereo not given)
  Vif A3G: -8% | ALR H2O2 inh: -2 | LANA-H2A inh: 8.9 | Calb FLC: -5 | HNF4A DNA FP: 4.6 | RanGTP-Imp inh: ? | Beta2AR agonist: -3

COc1cccc(C(=O)OCc2cc(=O)oc3c(C)c(C)ccc23)c1OC
  Vif A3G: 3% | ALR H2O2 inh: -8 | LANA-H2A inh: 0.5 | Calb FLC: -9 | HNF4A DNA FP: -3.5 | RanGTP-Imp inh: -2.4 | Beta2AR agonist: 3

Going on with the list.
structure	Vif A3G	ALR H2O2 inh	LANA-H2A inh	Calb FLC	HNF4A DNA FP	RanGTP-Imp inh	Beta2AR agonist
CCCCC(CC)CNC(=O)c1cccs1 (stereo not given)	28%	-12	4.6	-26	0.1	-1.5	0
COc1nc(Oc2ccc(=O)[nH]n2)nc(N2CCOCC2)n1	-3%	-11	1.0	-12	2.6	-0.6	-4
C1=C(CCNC2=NCCCCC2)CCCC1	-8%	-4	1.4	.	0.2	0.5	5
Cc1ccccc1S(=O)(=O)c1c(C)cc(C)n(CC(C)C)c1=O	2%	.	-1.7	3	-0.6	-4.0	3
CC(=O)N/C(=C\c1ccccc1)C(=O)OC/C=C/c1ccccc1	11%	-5	1.4	2	-4.3	-2.9	-7
CC(NC(=O)c1ccco1)c1nc(-c2ccc(Cl)cc2)no1 (stereo not given)	.	-2	-7.8	-20	1.5	2.1	-11
C=CCNC(=O)C1CC2Cn3c(nc4ccccc43)C2N1C (stereo not given)	.	.	-1.6	-8	1.5	0.9	-2
CCOc1cc(Br)c(CN2C(=O)NC3(CCCCCC3)C2=O)cc1OCC	2%	0	2.0	9	2.9	4.7	-2
COc1cc(SC)ccc1C(=O)OC(C)C(=O)NC1CCCC1 (stereo not given)	5%	.	.	.	-2.4	.	-7
Cc1cc(=O)oc2cc(OCC(=O)OCC(=O)NC(C)C)ccc12	18%	-1	-3.7	2	3.0	-7.5	7
CC1CC(=O)Nc2ccccc2N1C(=O)CN1CCN(c2ccccc2)CC1 (stereo not given)	-2%	48	2.1	7	5.8	-8.8	-8
Cc1ccnc2nc(C(=O)OCC(=O)c3ccccc3)nn12	7%	-3	2.3	.	3.9	.	0
CC(=O)c1cc2c(cc1NC(=O)c1cccc(S(=O)(=O)N3CCN(C)CC3)c1)OCO2	-13%	-11	-1.1	0	-2.6	6.4	-3
CCCn1nnnc1SCC(=O)NCc1ccccc1	-2%	-4	2.3	0	2.6	0.9	-3
COC(=O)CSc1nnc(-c2cccc(NC(=O)c3ccc(C)cc3)c2)n1C	-2%	-5	2.9	0	-0.9	-3.0	10
Cc1ccc(S(=O)(=O)Nc2nc3ccc(S(=O)(=O)N4CCCC4)cc3s2)cc1	5%	-2	2.3	8	5.1	-0.1	6
COC(C(=O)N/N=C(\C)c1ccc(C(C)(C)C)cc1)c1ccccc1 (stereo not given)	.	12	-7.8	7	0.6	-3.7	6
O=C(CN1C(=O)c2ccccc2S1(=O)=O)c1ccc(F)cc1	2%	.	-3.5	-2	-0.2	?	-4
COc1ccc(CN2CCNC(=O)C2CC(=O)NCCc2c[nH]c3ccccc23)c(OC)c1 (stereo not given)	-1%	-7	-1.6	13	0.1	0.3	-5
COc1ccc(CNC(=O)c2ccc(NC(=O)C3=CSCCO3)cc2)cc1	.	-1	1.9	-3	1.1	-3.2	21
CCOCC(=O)Nc1ccccc1C(=O)O	9%	-6	-0.9	-7	2.1	3.8	6
C=CCOC(=O)CC(NC(=O)c1ccccc1)c1ccccc1 (stereo not given)	11%	-8	1.9	4	1.3	-1.0	4
Cc1nc2sc3c(c2c(=O)n1/N=C/c1ccco1)CCCC3	23%	0	-1.6	?	0.9	-2.7	-3
COC(=O)c1c(NC(C)=O)sc(C(=O)Nc2ccccc2F)c1C	-6%	.	-2.0	-10	6.2	.	-4
CCOc1ccccc1C(=O)Oc1ccc2ccc(=O)oc2c1	1%	-3	0.4	-11	3.5	-3.0	-8
O=c1[nH][nH]c(-c2ccccc2O)c1C(C[N+](=O)[O-])c1cccc(Cl)c1 (stereo not given)	5%	.	2.5	3	-0.8	1.6	-3
